Screens (PubChem)
UCH37 DUB inh: human UCH37 deubiquitinating enzyme inhibition. Q9Y5K5. purified proteasome/UCH37, Ub-AMC cleavage fluorescence. inhibition, % (test concentration not listed). 330,000 tested, 0.33% active;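 active means mean of two replicates above 20%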;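 further: 0% = compound-free wells with enzyme and 100% = wells lacking proteasome; stock transfer was 100 nL into about 20 µL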
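system = Proteasome-associated human UCH37 deubiquitinase | amount = 0.15 nM proteasome as dispensed | medium = pH 7.4 Tris-HCl (50 mM) with ovalbumin, ATP-MgCl2, DTT | incubation = 30 min preincubation with enzyme, 25 min cleavage at room temperature | detection = AMC fluorescence 355/460 nm | read-out basis = percent inhibition | controls = no-proteasome and no-compound wells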
LANA-H2A inh: blocks KSHV LANA binding to histone H2A/H2B. cell-free LANA-H2A/H2B peptide, fluorescence polarization. 320,000 tested, 0.6% active. Q9QR71. AID 2629. inhibition, % (test concentration not listed); in the data active means inhibition mostly above about 10%, no sharp cut-off; inactive means mostly below about 6.7%;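 further: stock transfer was 7.5 nL into about 10 µL; 0% = median of vehicle wells and 100% = median of positive control wells; one replicate is shown; the record names a cut of 25% in any replicate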
ALR H2O2 inh: blocks human ALR sulfhydryl oxidase activity; inhibition, % (test concentration not listed); 290,000 tested, 3.8% active; P55789; purified ALR, DTT oxidation, H2O2 HRP-luminol luminescence;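 active means mean and each replicate at 75% or more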;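 further: stock transfer was 7.5 nL into about 7.5 µL; 0% = neutral wells and 100% = wells with inactivated enzyme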
Ecoli growth: E. coli growth inhibition; Escherichia coli growth, OD600, 23 h; active compounds read low; OD600 absorbance (no concentration beside the values); 330,000 tested, 0.21% active;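 active means OD600 absorbance below the run mean of sample wells minus 3.6 SD, in any replicate, cut at about 0.56 in these data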;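 further: stock transfer was 300 nL into about 60 µL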
FGF22 binding: FGF22 (human) thermal shift binding; 340,000 tested, 1.5% active; Q9HCT0; recombinant FGF22 thermal shift, SYPRO orange fluorescence; percent of sucrose octasulfate shift, DMSO zero; calls only at 9.99 µM; AID 651658;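 active means melting point raised past a set limit in the mean and every replicate; three in four hits are not shown here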
Target sequence (Q9HCT0 whole entry, looked up): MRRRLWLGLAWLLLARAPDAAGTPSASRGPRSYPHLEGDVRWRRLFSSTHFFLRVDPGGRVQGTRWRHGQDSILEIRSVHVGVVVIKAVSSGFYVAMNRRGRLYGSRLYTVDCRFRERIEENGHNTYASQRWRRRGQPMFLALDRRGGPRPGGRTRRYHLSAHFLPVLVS
B2AR ag: activates human beta-2 adrenergic receptor causing internalization | Am2.2-beta2AR cells, FAP receptor internalization, flow cytometry; reference of the scale not given here | 340,000 tested, 0.43% active | P07550 | response, % (concentration not given with the values) | AID 504454;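 active means response above a set limit, near 3 SD of response in nonfluorescent compounds, cut at about 42% in these data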;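 further: stock transfer was 100 nL into about 11 µL; a reference agonist was the positive control; negative values mostly stem from fluorescent compounds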
Target sequence (P07550 whole entry, looked up): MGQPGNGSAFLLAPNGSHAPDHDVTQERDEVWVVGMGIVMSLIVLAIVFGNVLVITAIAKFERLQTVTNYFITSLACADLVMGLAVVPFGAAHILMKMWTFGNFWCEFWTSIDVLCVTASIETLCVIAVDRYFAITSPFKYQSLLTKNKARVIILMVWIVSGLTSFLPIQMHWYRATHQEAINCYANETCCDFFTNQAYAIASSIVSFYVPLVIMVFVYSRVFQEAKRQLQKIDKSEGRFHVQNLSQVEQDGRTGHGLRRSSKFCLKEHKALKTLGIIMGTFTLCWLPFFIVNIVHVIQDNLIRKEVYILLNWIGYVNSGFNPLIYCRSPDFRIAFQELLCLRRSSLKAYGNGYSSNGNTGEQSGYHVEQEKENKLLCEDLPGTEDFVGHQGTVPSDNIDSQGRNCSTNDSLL
HNF4A DNA FP: change in binding of human HNF4 alpha to DNA; P41235; 360,000 tested, 0.3% active; HNF4a-FITC DNA binding, fluorescence polarization, 1 h; activity change, % at 10 µM; in the data active means activity change above about 30%, passing the limit was not always enough;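 further: controls were the assay level and a saturating level of protein; the project sought stronger binding though the title names inhibitors; some compounds called inactive have numbers as strong as hits; positive values seem to mean higher polarization but the record does not say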
Target sequence (P41235 whole entry, looked up): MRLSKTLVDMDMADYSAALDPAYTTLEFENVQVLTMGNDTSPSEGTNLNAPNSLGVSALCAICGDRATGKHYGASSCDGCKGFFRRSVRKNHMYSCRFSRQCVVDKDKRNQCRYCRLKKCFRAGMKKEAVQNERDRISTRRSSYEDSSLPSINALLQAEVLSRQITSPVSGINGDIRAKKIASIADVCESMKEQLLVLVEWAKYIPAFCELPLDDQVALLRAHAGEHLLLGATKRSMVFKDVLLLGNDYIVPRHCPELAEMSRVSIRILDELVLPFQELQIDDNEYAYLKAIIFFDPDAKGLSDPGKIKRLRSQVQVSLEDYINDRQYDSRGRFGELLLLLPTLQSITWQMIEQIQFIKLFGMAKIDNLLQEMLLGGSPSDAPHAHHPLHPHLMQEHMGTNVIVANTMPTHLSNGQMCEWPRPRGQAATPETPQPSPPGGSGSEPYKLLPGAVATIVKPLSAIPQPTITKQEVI
The depositor's hits bear a star; i = inactive; . = not tested or not shown.

Molecule	UCH37 DUB inh	LANA-H2A inh	ALR H2O2 inh	Ecoli growth	FGF22 binding	B2AR ag	HNF4A DNA FP
Cc1cc(C)n(CCC(=O)N2CCCC(Nc3ccc(F)cc3)C2)n1 (centres undefined)	0.7	-0.6	98*	0.69	i	-2	2.3
Cc1nnc(NC(=O)CSc2nnc(Cc3cccn3C)n2-c2cccc(C(F)(F)F)c2)s1	0.7	-2.5	1	0.7	i	-3	4.7
C[C@@H]1C[C@H](Nc2ccccc2)c2ccccc2N1C(=O)c1cccnc1	4.4	3.2	27	0.76	.	29	2.6
CCS(=O)(=O)N1CCCC(C(=O)NCc2ccccc2Cl)C1 (centres undefined)	-0.8	-2.9	-4	0.76	.	3	-3.0
COc1ccc(Cl)cc1N(CC(=O)N(C)C)S(=O)(=O)c1ccc(C)c([N+](=O)[O-])c1	-1.6	-1.1	.	0.69	i	4	1.8
CCOc1ccc(CN2CCN(Cc3nc4c(s3)CCCC4)CC2CCO)cc1 (centres undefined)	0.6	0.1	-3	0.68	i	-6	1.2
C(=C1c2ccccc2-c2ccccc21)c1ccncc1	3.5	.	.	0.61	i	3	0.1
Cc1nn(Cc2ccc(Cl)c(Cl)c2)c(C)c1NC(=O)c1cc(-c2ccc3c(c2)OCO3)on1	-0.8	-3.0	-10	0.69	.	8	1.3
COc1cccc(NC(=O)CS(=O)(=O)c2cn(CC(=O)N3CCOCC3)c3ccccc23)c1	2.8	-9.3	-7	0.69	i	0	2.0
COc1ccc(-n2nc(C(=O)NCC(=O)NC(C)C)c3ccccc3c2=O)cc1Cl	1.2	0.7	7	0.63	i	1	4.4

The list continues:
Molecule	UCH37 DUB inh	LANA-H2A inh	ALR H2O2 inh	Ecoli growth	FGF22 binding	B2AR ag	HNF4A DNA FP
Nc1ncnc(Nc2ccccn2)c1[N+](=O)[O-]	11	0.8	.	0.69	i	12	1.3
CCOc1ccccc1NC(=S)N1CCN(c2cccc(C)c2C)CC1	5.2	-0.1	-27	0.72	i	0	-4.7
O=C(NCc1ccc2c(c1)OCO2)c1ccc(NS(=O)(=O)c2ccc3c(c2)OCCO3)cc1	1.8	-3.6	0	0.7	.	15	-2.9
Cc1cc(C)c(S(=O)(=O)Nc2ccccn2)c(C)c1	-7.5	-5.5	-4	0.69	i	1	4.3
Cc1cccc(C(=O)Nc2c(C(=O)N(C)C)cnn2-c2ccccc2)c1	3.9	0.5	.	0.62	i	-4	3.6
COc1ccc(C2=NOC(C(=O)Nc3cc(C)on3)C2)cc1 (centres undefined)	4.5	-2.2	-1	0.72	i	-9	-0.2
CCOc1ccc(NC2CCN(C(C)=O)CC2)cc1	1.2	0.3	91*	0.78	i	0	-2.5
O=C1C=CC(=O)c2c(O)c(CO)c(CO)c(O)c21	.	.	.	.	i	2	-86
COc1cc(C2c3c(oc4ccccc4c3=O)C(=O)N2c2ccc(C)cn2)ccc1O (centres undefined)	3.9	10	24	0.72	i	-25	5.2
Cc1cccc(C)c1NC(=S)N(Cc1ccccc1)Cc1cccnc1	1.9	.	.	0.68	i	-2	5.0

Further results:
Molecule	UCH37 DUB inh	LANA-H2A inh	ALR H2O2 inh	Ecoli growth	FGF22 binding	B2AR ag	HNF4A DNA FP
CNC(=O)C(=O)NCC1OCCN1S(=O)(=O)c1ccc2c(c1)OCCO2 (centres undefined)	4.0	-3.0	-1	0.68	i	-10	-1.9
CCN(CC)C(=S)SC1CCCCN(C(=O)c2ccc(F)cc2)C1=O (centres undefined)	0.0	-2.5	-17	0.65	i	-1	3.4
COC(=O)C(C)N1CCC(=O)c2ccccc2S1(=O)=O (centres undefined)	4.6	2.2	-7	0.66	.	2	1.4
COc1ccc(/C=C/C(=O)NC(=S)Nc2ccc(Br)cn2)cc1	0.5	3.7	.	0.7	i	-1	0.8
O=C(CSc1nc(=O)n(CCN2CCOCC2)c2c1CCCC2)Nc1cccc([N+](=O)[O-])c1	3.9	3.6	-8	0.63	i	-4	-4.1
COCCSc1ccccc1C(=O)N1CCCC(C)C1 (centres undefined)	1.6	-4.7	-2	0.69	i	-4	1.1
C=CCN(Cc1cn(C)nc1-c1cccc(Cl)c1)C1CCS(=O)(=O)C1 (centres undefined)	0.7	-2.9	5	0.65	i	0	1.1
Cc1ccc(Cl)cc1N1CCN(C(=O)C2CCN(c3nnc(-n4cccc4)s3)CC2)CC1	2.0	-0.8	-3	0.71	i	-2	1.4
COc1ccc(Oc2cccc(Cl)c2CNC(=O)c2ccccc2C(=O)O)cc1	2.6	5.0	4	0.64	i	1	0.7
COC(=O)c1ccc(NC(=O)CN2C(=O)CNC2=O)cc1	-1.0	1.9	13	0.75	.	7	0.1

(listing goes on)
Molecule	UCH37 DUB inh	LANA-H2A inh	ALR H2O2 inh	Ecoli growth	FGF22 binding	B2AR ag	HNF4A DNA FP
CCc1nn(C(C)C(=O)NCc2ccc(Cl)cc2)c(=O)c2cc3occc3n12 (centres undefined)	0.2	-2.9	1	0.66	i	-6	0.1
CCOC(=O)c1cc(-c2ccccc2)nc2nc(N(CC)CC)sc12	-329	1.0	2	0.69	i	-4	-3.0
COc1cc(C(=O)Nc2ccc(NC(C)=O)cc2)ccc1OCc1ccccc1	.	-4.8	-49	.	i	-5	-1.4
Cn1cnnc1SCC(=O)Nc1nc(-c2ccccc2)cs1	1.3	-5.2	9	0.64	i	-4	0.2
O=[N+]([O-])c1cccc(C2CC(c3ccccc3)=NN2c2ccccc2)c1 (centres undefined)	4.4	-6.5	-1	0.65	i	33	-3.3
O=C1NC2(CCCCC2)C(=O)N1CC(=O)N(Cc1ccccc1)c1ccccc1	.	2.5	-2	.	i	-10	4.2
C=CCNC(=O)C1CC(=O)N(c2ccc(OCC(=O)N3CCCC3)cc2)C1 (centres undefined)	2.2	1.0	3	0.69	i	7	-3.0
Cc1cc(C(=O)NNC(=O)Nc2ccc(Cl)cc2)no1	0.7	-3.5	19	0.7	i	3	0.1
Fc1ccc(N/N=C/c2ccncc2)c(F)c1	.	7.5	70	.	i	4	-1.3
CCOc1cc(C2C3=C(CCCC3=O)N(C)C3=C2C(=O)CCC3)cc(Cl)c1O	-2.5	5.5	31	0.72	.	5	-7.4

Part of the list above in order of heavy-atom count, low to high.
Molecule	UCH37 DUB inh	LANA-H2A inh	ALR H2O2 inh	Ecoli growth	FGF22 binding	B2AR ag	HNF4A DNA FP
Fc1ccc(N/N=C/c2ccncc2)c(F)c1	.	7.5	70	.	i	4	-1.3
Cc1cc(C(=O)NNC(=O)Nc2ccc(Cl)cc2)no1	0.7	-3.5	19	0.7	i	3	0.1
O=[N+]([O-])c1cccc(C2CC(c3ccccc3)=NN2c2ccccc2)c1 (centres undefined)	4.4	-6.5	-1	0.65	i	33	-3.3
CCc1nn(C(C)C(=O)NCc2ccc(Cl)cc2)c(=O)c2cc3occc3n12 (centres undefined)	0.2	-2.9	1	0.66	i	-6	0.1
COc1cc(C(=O)Nc2ccc(NC(C)=O)cc2)ccc1OCc1ccccc1	.	-4.8	-49	.	i	-5	-1.4

Further results
Molecule	UCH37 DUB inh	LANA-H2A inh	ALR H2O2 inh	Ecoli growth	FGF22 binding	B2AR ag	HNF4A DNA FP
CCOC(=O)[C@H]1[C@H]2COc3cc(OC)ccc3[C@@H]2N2C(=O)CN(CC3CCCO3)C(=O)[C@@]12C (some centres undefined)	-0.5	3.9	-5	.	i	-4	2.4
CC(=O)NCCn1c(SCc2cc(=O)n3cc(Cl)ccc3n2)nc2ccccc2c1=O	-19	-1.9	.	0.68	.	-11	2.1
CC1Cc2ccccc2N1C(=O)CN1C(=O)CN(C)C(=O)c2ccccc21 (centres undefined)	3.1	-1.2	.	0.72	.	0	2.9
COc1ccccc1NC(=O)Cc1nnc(SCC(=O)Nc2ccccc2F)n1C	0.6	2.4	3	0.71	i	-10	-0.7
CC(=O)c1ccc(C(=O)NC2CCCN(Cc3ccccc3F)C2)s1 (centres undefined)	5.2	1.8	1	0.71	i	-3	0.6
COC(=O)[C@@H]1C[C@@]2(O)[C@H](O)[C@H](O)[C@H](O)C[C@H]2N1Cc1cccc2ccccc12	-0.2	-2.0	.	.	i	0	2.8
COCCOC(=O)C1=C(C)Nc2ncnn2C1c1ccccc1 (centres undefined)	0.9	4.9	3	0.72	.	-2	-5.7
CC1CN(C(=O)CSc2nnc(NC(=O)NC(C)(C)C)s2)CC(C)O1 (centres undefined)	-0.7	4.1	-8	0.63	i	-8	-2.7
O=C(CN1CCCc2ccccc21)N/N=C/c1ccc(O)cc1O	.	-0.8	98*	.	i	13	-1.2
CCc1nn2cc(C(=O)c3cc(Cl)ccc3O)cnc2c1-c1ccc(F)cc1	7.6	.	.	0.73	i	15	-2.7

(continued)
canonical_smiles | UCH37 DUB inh | LANA-H2A inh | ALR H2O2 inh | Ecoli growth | FGF22 binding | B2AR ag | HNF4A DNA FP
OCCCN1CCN(CCOc2ccccc2-c2ccccc2)CC1 | 2.0 | 2.6 | -1 | 0.65 | i | -1 | -4.6
COc1cc(/C=N/N=C(\N)c2nonc2N)ccc1O | . | -3.2 | 99* | . | i | 2 | 1.4
Nc1nonc1C(=O)NCCNc1ccc([N+](=O)[O-])cc1 | 8.1 | 1.0 | -2 | 0.63 | i | 4 | 2.9
Cc1ccc(C)c(S(=O)(=O)N2CCN(C(=O)C(C)Sc3ccccc3)CC2)c1 (centres undefined) | 0.8 | -11 | -10 | 0.74 | i | 8 | 1.7
Cc1cccc(N2CCN(C(=O)CCCn3c(=S)[nH]c4cc5c(cc4c3=O)OCO5)CC2)c1C | 3.9 | 6.6 | 0 | 0.71 | . | -6 | 4.2
C#CCOCCOCCOCCNc1nc(N2CCN(C(=O)[C@H](CCCCN)n3cc([C@@H](N)CC(N)=O)nn3)CC2)nc(N2CCN(C(=O)[C@H](CCCCN)n3cc([C@@H](N)CC(N)=O)nn3)CC2)n1 | 1.9 | 9.9 | 9 | . | i | 6 | 6.8
Cc1cc(C)[n+]2[nH]c(N)c(N=Nc3ccccc3)c2n1 | 14 | 12 | -12 | 0.64 | i | -10 | -0.3
O=Cc1c(NCc2ccco2)nc2ccccn2c1=O | 4.5 | 0.5 | 10 | 0.71 | i | -7 | -1.1

New compounds follow:
canonical_smiles | UCH37 DUB inh | LANA-H2A inh | ALR H2O2 inh | Ecoli growth | FGF22 binding | B2AR ag | HNF4A DNA FP
NC1=C([N+](=O)[O-])C(c2ccc(F)cc2)C2=C(CCCC2=O)O1 (centres undefined) | 1.4 | 2.8 | 43 | 0.73 | i | 6 | -0.5
Cc1ccc(S(=O)(=O)NCCCCCC(=O)Nc2cccc(C)c2)cc1 | 2.6 | -2.8 | -8 | 0.68 | . | 24 | -0.5
Cc1ccc(S(=O)(=O)CC(=O)N(CCCN2CCOCC2)c2nc3c(F)cccc3s2)cc1 | 5.9 | -4.3 | -3 | 0.63 | i | 6 | -4.4
CCOC(=O)C1CCCN(C(=O)c2cc(Nc3ccc(OC)c(OC)c3)nc3ccccc23)C1 (centres undefined) | 6.9 | 1.4 | 11 | 0.67 | . | 4 | -2.7
CN1CCN(S(=O)(=O)Cc2ccc(Cl)cc2)CC1 | 1.4 | -0.1 | -1 | 0.71 | i | -17 | -1.1
CC1CN(S(=O)(=O)c2cccc(-c3csc(-c4ccccc4)n3)c2)CC(C)O1 (centres undefined) | -1.4 | 3.1 | 98* | 0.71 | . | -1 | -1.8
O=C(Cc1cccs1)NNC(=S)NCc1ccc(Cl)cc1 | 0.6 | 3.5 | 9 | 0.73 | . | 13 | -1.2
CCOc1ccc(NC(=O)CCC(=O)NNC(=O)COc2ccccc2C)cc1 | 0.3 | 3.3 | -32 | 0.67 | . | -7 | 2.3
COc1ccc(S(=O)(=O)NN=C2CCCC2)cc1 | 0.0 | 2.4 | 19 | 0.72 | . | 0 | -3.2
CCN(CC)CCNC(=O)C1(O)c2cc(Br)ccc2NC(=O)N1c1c(F)cccc1F (centres undefined) | 3.6 | 3.1 | -5 | 0.68 | i | -2 | 1.6
CCC(C)Sc1nc2c(c(=O)[nH]c(=O)n2C)n1CCc1ccccc1 (centres undefined) | 3.1 | -1.7 | -1 | 0.71 | . | 2 | 1.2

Not all compounds are listed; rates above refer to the full screens.
